# gsp antag: antagonists of gsp mutant (McCune-Albright syndrome); gsp-mutant cells, cAMP HTRF, 30 min; control for the full effect not named in the record; Potency, µM (highest dose often 76.9 µM), for the others: at the highest dose activity change, negative = inhibition, hits mostly inhibitors; 340,000 tested, 0.4% active; AID 624288; active = falling curve of any shape with a large fitted effect; inconclusive = falling curve, mostly with a smaller effect; inactive = flat or rising curve; cell line not stated here;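 also: intracellular cAMP measured with PDE inhibitor Ro 20-1724 present during compound exposure; potency is read from the fitted curve at half-maximal effect; % is scaled to controls: 0 for no effect and ±100 for the full control effect; nearly all actives have a fitted effect of over 65% in size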
#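 Measurement of cellular cAMP by homogeneous time-resolved fluorescence following a 30 min compound exposure at 37C. The PDE inhibitor […] was present throughout; the assay buffer was DPBS with 0.05% BSA and 0.005% Tween 20.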
# Sfp inh: blocks B. subtilis Sfp PPTase activity | Biochemical Sfp PPTase activity, qHTS | Q9F4F7 | 310,000 tested, 3.5% active | Potency, µM, for the others: max response, negative = inhibition, usual class: inhibitors; active = well fitted inhibition curve with a large enough effect; inconclusive = small, poorly fitted or top-dose-only effect, or another doubt; inactive = no such curve, though single readings can be large or run the other way;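 also: the enzyme is Sfp with the accession as filed and its product quenches rhodamine fluorescence; potency is read from the fitted curve at half-maximal effect; 0% = enzyme reaction without inhibitor and -100% = no enzyme wells; top concentration of the series not given in the record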
#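 Sfp 15 nM + cpd, 15 min RT; start w/ rhodamine-CoA 5 uM, BHQ-2-YbbR 12.5 uM (final); 50 mM Hepes pH 7.6, 10 mM MgCl2, 0.01% NP-40, 0.01% BSA; read 525/598 nm at 0 and 30 min.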
# TRPV1 PAM: human TRPV1 potentiation. Q8NER1. TRPV1-expressing cells, Fluo-8 calcium influx, capsaicin EC20 potentiation; host cell line not named in the record; control for the full effect not named in the record. potentiation, % at 8.33 µM. 320,000 tested, 0.02% active; active means potentiation above 80%; inconclusive means 30% to 80%; inactive means below 30%; also: 0% is about no effect
#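 Fluo-8 calcium influx in TRPV1-expressing cells, kinetic read (ex 480/em 520 nm). Compound added and read 3 min for agonist activity, followed by capsaicin at EC20 final and 2 min further read for enhancement.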
# TRPML1 blocker: blocks the human TRPML1 channel. Q9GZU1. TRPML1-inducible cells, Ca2+ dye fluorescence, FDSS; hits give low values; inhibition of EC80 agonist-evoked calcium signal. activity change, negative = inhibition, % (concentration not given with the values). 390,000 tested, 0.02% active. AID 624415; in the data active means activity change below about -50%; inconclusive means about -30% to -50%; inactive means above about -30%;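 also: stimulus is agonist 54-4 at its EC80 concentration; % is scaled to controls: 0 for no effect and ±100 for the full control effect; compound concentration not given in the record; the text of the record puts the active cut at -80%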
# Target sequence (Q9GZU1 whole entry, looked up): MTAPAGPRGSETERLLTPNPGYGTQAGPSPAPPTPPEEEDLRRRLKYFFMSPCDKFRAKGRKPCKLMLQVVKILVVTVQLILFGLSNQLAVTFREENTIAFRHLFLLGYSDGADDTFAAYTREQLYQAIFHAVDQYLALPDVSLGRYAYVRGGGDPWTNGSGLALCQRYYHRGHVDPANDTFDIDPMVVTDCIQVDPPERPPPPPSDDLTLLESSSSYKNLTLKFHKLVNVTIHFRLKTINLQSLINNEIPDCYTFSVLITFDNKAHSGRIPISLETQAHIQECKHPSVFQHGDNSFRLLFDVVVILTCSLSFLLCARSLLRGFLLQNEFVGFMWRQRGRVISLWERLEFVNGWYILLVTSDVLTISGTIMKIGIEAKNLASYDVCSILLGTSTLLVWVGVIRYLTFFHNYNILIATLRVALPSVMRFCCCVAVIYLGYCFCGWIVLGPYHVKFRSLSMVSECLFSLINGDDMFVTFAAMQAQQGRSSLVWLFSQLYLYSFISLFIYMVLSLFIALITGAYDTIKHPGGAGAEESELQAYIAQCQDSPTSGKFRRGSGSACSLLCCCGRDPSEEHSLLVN
#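 Tet-induced TRPML1-DL cells loaded with Ca8 no-wash calcium dye were read kinetically on FDSS. Compound addition was followed by EC80 agonist 54-4 (4 uM final); inhibition was read over 110 s.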
# ClpP mod: qHTS Assay for Activators of ClpP; ATP-dependent Clp protease proteolytic subunit (Bacillus subtilis (strain 168)), P80244; purified B. subtilis ClpP, FRET peptide cleavage, 20 min; Potency, µM (doses to about 57.5 µM), for inactives: at the highest dose activity change, negative = active; 340,000 tested, 1.9% active; active = well fitted falling curve with a large enough effect; inconclusive = small, poorly fitted or top-dose-only effect; inactive = no such curve, though single readings can be large or run the other way; also: potency is read from the fitted curve at half-maximal effect; the source files actives as falling curves though it sought activators and does not explain the sign; nearly all actives have a fitted effect of over 65% in size; many hits overshoot -100%
# Target sequence (P80244 whole entry, looked up): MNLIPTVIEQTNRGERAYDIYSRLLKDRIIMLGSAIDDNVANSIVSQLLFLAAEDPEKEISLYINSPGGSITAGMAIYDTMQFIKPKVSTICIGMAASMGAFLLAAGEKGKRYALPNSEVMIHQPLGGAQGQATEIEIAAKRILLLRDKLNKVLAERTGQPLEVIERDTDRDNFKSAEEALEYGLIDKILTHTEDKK
#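 Purified B. subtilis ClpP, 10 microg/mL final in Tris/HCl pH8 with KCl, BSA, glycerol and Tween-20, cleaved an Abz/nitrotyrosine-quenched decapeptide. Fluorescence (ex 320, em 430) was read at 0 and 20 min at room temperature. Delta was normalized to 5.8 microM ADEP and DMSO/no-enzyme controls.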
# gsp ag: activates gsp, the McCune-Albright syndrome mutation | 340,000 tested, 0.13% active | Potency, µM (doses to about 76.9 µM), without a hit: at the top dose activation (cAMP increase), most hits filed as activators | AID 624287 | gsp mutant cells, cAMP HTRF, 30 min; control for the full effect not named in the record; active = well fitted activation curve with a large enough effect; inconclusive = small, poorly fitted or top-dose-only effect, or another doubt; inactive = no such curve, though single readings can be large or run the other way; cell line not stated here;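 also: phosphodiesterase inhibitor Ro 20-1724 added with compounds to block cAMP breakdown; potency is read from the fitted curve at half-maximal effect; nearly all actives have a fitted effect of over 60% in size; about a fifth of the inactives were tested at one dose only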
#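 Cells in DMEM/10% FBS with G418 were pretreated with compounds in DMSO plus […] (300 uM stock) for 30 min at 37C. cAMP was measured by HTRF (cAMP-d2 plus anti-cAMP antibody-K) after 30 min at room temperature.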
# Menin-MLL FL inh: menin-MLL binding inhibition, fluorescein peptide; Fluorescence polarization, fluorescein-MLL peptide displacement from menin; FP activity change, % at 61.4 µM; 290,000 tested, under 10 active; AID 1766; inconclusive = falling polarisation curve, or a change in total fluorescence; inactive = total fluorescence flat and polarisation flat or rising; no compound was filed as active; the % refers to the polarisation; negative = inhibition;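 also: % of control where 0% means no effect; inhibitors lower the polarisation; unlabelled MLL peptide was the positive control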
# The depositor's hits bear a star; u = inconclusive; x = not tested or not shown; & = joins results of further samples; [ ] = remark or other dose.
SMILES,gsp antag,Sfp inh,TRPV1 PAM,TRPML1 blocker,ClpP mod,gsp ag,Menin-MLL FL inh
Cc1ccc(OC(=O)CCc2c(C)nc3ncnn3c2C)cc1,12.8%,12.8%,18.3,-3.5,0.6%,0.1%,4.3
Cc1ccc(NS(=O)(=O)c2ccc(CCC(=O)NCc3cccnc3)cc2)cc1,-5.0%,12.1%,3.3,-7.1,x,-4.6%,3.0
CC1(C)CC(=O)C2=C(C1)N=C1SCCC(=O)N1C2c1cccc([N+](=O)[O-])c1 (stereo not given),-1.4%,13.0%,-6.7,13.5,2.7%,26.6%,-0.9
CCCNc1nc(C)c(C(C)=O)cc1C#N,9.3%,19.4%,4.5,47.9,-9.1%,u,2.2
O=C(CSc1ccc(-c2ccccc2)nn1)Nc1ccc2c(c1)OCCO2,0.2%,14.6%,-4.7,5.1,2.0%,-1.0%[15.4 µM],-0.4
N#Cc1cc2c(nc1Cl)CCC2,0.9%,5.4%,3.4,4.5,-0.2%,-0.2%,-1.3
O=C(NCC1CCCO1)NC12CC3CC(CC(C3)C1)C2 (stereo not given),1.7%,9.2%,-8.3,-5.2,0.4%,-11.0%,0.8
COc1ccccc1N(CC(O)Cn1ccnc1C)S(=O)(=O)c1ccccc1 (stereo not given),5.7%,15.2%,8.2,12.7,x,37.5%[15.4 µM],-0.3
C=CCn1c(=N)c(C(=O)OCC)cc2c(=O)n3cc(C)ccc3nc21,x,25.6%,9.2,x,x,x,1.3
NC(CCC(=O)O)C12CC3CC(CC(C3)C1)C2 (stereo not given),-7.6%,-3.3%,-2.4,-16.8,x,9.4%,-2.8
O=C1N=c2ccccc2=C1c1[nH]c(=S)[nH]c1O,-10.5%,-0.5%,3.6,-25.5,0.5%,-27.7%,3.3
O=C(OCc1cc(Cl)ccc1OC(F)F)c1cc(S(=O)(=O)O)ccc1O,x,13.7%,-3.2,x,x,x,3.8
CC(C)(C)c1ccc(C(=O)NCC(=O)OCC(=O)N2CCN(S(=O)(=O)c3ccc(Cl)cc3)CC2)cc1,2.4%,x,4.2,-1.2,0.9%,-19.5%,x
Cc1ccc(NC(=O)c2ccc(-n3cccn3)c([N+](=O)[O-])c2)cc1,u,9.0%,-11.4,5.0,-1.1%,u,4.8
CC(C)Oc1cccc(NC(=O)c2cnccc2C(F)(F)F)c1,3.1%,3.4%,-6.2,5.6,-0.1%,-15.3%,-6.7
Cc1c(OC(C(=O)O)c2ccccc2)ccc2c1oc(=O)c1ccccc12 (stereo not given),-9.7%,7.3%,-3.5,0.5,4.7%,-12.7%,-1.2
COc1ccc(Nc2nc(C)nc3c2nnn3Cc2ccccc2Cl)c(OC)c1,13.7%,9.7%,4.6,-6.8,15.2%,1.1%,-0.6
Cc1ccc(Cl)cc1NC(=O)Cn1cc(C(F)(F)F)cc(Cl)c1=O,0.6%,15.5%,1.3,-9.0,3.4%,-34.4%[inhibitor],6.5
CCN1CCN(C2CCCCC2NS(=O)(=O)c2ccc(Cl)cc2)CC1 (stereo not given),12.5%,5.5%,-5.4,12.8,-3.0%,u,-8.6
Cc1cccc(NC(=O)CCCC(=O)OC(C)C(=O)c2ccccc2)c1 (stereo not given),2.6%,15.0%,11.9,6.9,x,6.6%,-3.7
CNNC(=O)C(C)NC(=O)c1ccc(Br)cc1 (stereo not given),-0.6%,2.6%,8.4,8.6,-2.0%,u,-0.6
Cc1cccc(NC(=O)CN(C)S(=O)(=O)c2cnc[nH]2)c1C,x,x,x,-1.8&-4.8,-0.5%&-0.6%,16.4%,x
COc1cccc(N(C(=O)c2sc(C)nc2C)C(C(=O)NCC2CCCO2)c2ccccc2)c1 (stereo not given),-30.0%,7.0%,19.5,4.2,0.2%,34.8%[15.4 µM],-5.5
O=C(Nc1ccc(N2CCOCC2)cc1)c1cccc(S(=O)(=O)N2CCCC2)c1,-8.9%,-17.9%,-19.1,7.6,-0.2%,1.6%,4.8
CN(C)c1ccc(N2CC(C)(C)C2=O)cc1,-24.5%,0.7%,-9.0,25.4,x,-12.8%,-4.1
# (further entries)
SMILES,gsp antag,Sfp inh,TRPV1 PAM,TRPML1 blocker,ClpP mod,gsp ag,Menin-MLL FL inh
CCc1nc2ccc(C(=O)Nc3ccc(NC(C)=O)cc3)cc2nc1CC,-3.2%,10.8%,-4.9,-12.0,-1.6%,-50.1%[inhibitor],2.8
C[C@H]1CN([C@@H](C)CO)C(=O)c2cccc(NC(=O)C3CC3)c2O[C@H]1CN(C)Cc1ccc(-c2ccccc2)cc1,-17.2%,x,x,7.2,-3.0%,u,x
C=CCN1C(=O)c2ccccc2Sc2ccc(C(=O)N3CCN(C)CC3)cc21,6.1%,5.3%,-0.5,-10.4,-0.6%,4.2%,4.3
CCn1c(SCC(=O)Nc2nccs2)nnc1-c1ccc(S(=O)(=O)N2CCCCC2)cc1,u,6.0%,3.9,10.9,-1.5%,10.6%,5.2
Cc1ccc(CCNS(=O)(=O)c2ccc3c(c2)NC(=O)CCS3)cc1,-5.2%,7.3%,-8.7,-8.6,-0.7%,-28.1%,-2.0
COc1ccc(-c2nnn(CC(=O)N(CCO)C(C(=O)NC3CCCC3)c3ccncc3)n2)cc1 (stereo not given),-8.4%,-8.2%,9.3,-15.0,x,16.0%[15.4 µM],-0.9
CCn1c(C(=O)NCc2ccccn2)cc2sccc21,0.9%,8.9%,-8.8,-5.8,-3.1%,u,2.7
CSCCC(NS(=O)(=O)c1cccc(C(F)(F)F)c1)C(=O)Nc1ccccc1N1CCCC1 (stereo not given),-14.4%,x,-2.8,7.1,-2.7%,-48.6%[inhibitor],x
O=C(Nc1ccccc1)Oc1cccc(Br)c1,8.2%,12.7%,-7.4,2.0,-2.4%,u,2.8
COc1ccc(NC(=O)/C(C#N)=C/c2c(C)nn(-c3ccc(F)cc3)c2Cl)cc1OC,-21.8%,3.3%,-2.7,-2.0,0.2%,u,2.1
Cc1cc(NC(=O)C2CCCC2)nc2c1c(=O)oc1ccccc12,-5.8%,5.5%,-14.3,-22.5,-8.3%,7.7%,2.7
O=C(CSc1nc2ccccc2[nH]1)Nc1ccc2[nH]c(=O)[nH]c2c1,4.5%,x,9.0,-2.7,-6.2%,20.9%,x
CC(C)(C)c1ccc(-c2noc(CCC(N)=O)n2)cc1,u,-2.8%,-1.1,-7.4,-0.4%,-26.0%,-0.5
O=S(=O)(c1ccc(S(=O)(=O)N2CCC(O)CC2)cc1)N1CCCC1,10.7%,7.1%,-1.1,3.9,x,30.7%,x
CCN(C(=S)NC(=O)CCc1ccccc1)c1ccccc1,7.9%,-25.1%,2.7,10.5,-14.4%,-43.3%[inhibitor],4.3
COc1ccc(CNC(=O)Cn2nc([N+](=O)[O-])c(Br)c2C)cc1OC,1.6%,10.2%,-5.8,-6.2,x,7.1%[15.4 µM],6.8
COc1ccc(-n2nc(C(=O)NCC(=O)Nc3cc(OC)c(OC)c(OC)c3)c3ccccc3c2=O)cc1,-23.6%,8.3%,10.6,10.6,x,-5.8%[15.4 µM],-0.9
Cc1ccc(-n2ncc(C(=O)Nc3cc(Cl)cc(Cl)c3)c2C2CCNCC2)cc1C,-19.9%,-19.1%,13.9,-3.8,0.8%,23.0%,0.8
O=C(COC(=O)/C=C/c1cccc(F)c1)NCc1ccc2c(c1)OCO2,x,x,x,7.4,0.4%,-61.7%[inhibitor],x
COc1ccc(NC(=O)n2nc(OC(=O)c3cccs3)cc2N)cc1,2.2%,2.6%,16.3,16.6,-1.6%,-43.6%[inhibitor],-1.3
COc1cccc(C(=O)Nc2cc(Cl)c(O)c(Cl)c2)c1,-0.2%,8.0%,-4.2,-11.1,0.3%,-7.4%,1.3
Cc1ccc(S(=O)(=O)N2CCCC2C(=O)Nc2ccc(O)cc2)cc1 (stereo not given),3.3%,5.9%,1.6,3.3,1.6%,-15.1%,1.4
COc1cccc(C(=O)Nc2cccc(C(=O)N3CCOCC3)c2)c1,-3.8%,10.1%,-31.9,-2.5,-1.4%,2.4%,1.7
O=C(Cn1nnc(-c2ccccc2)n1)N/N=C/c1cc([N+](=O)[O-])ccc1O,-0.3%,-1.0%,11.0,14.0,2.0%,-22.9%,3.1
CC(Sc1nnnn1-c1ccc(O)cc1)c1nc2ccccc2c(=O)[nH]1 (stereo not given),-11.1%,9.0%,-1.8,-9.6,x,4.7%[15.4 µM],1.3
# Next part:
SMILES,gsp antag,Sfp inh,TRPV1 PAM,TRPML1 blocker,ClpP mod,gsp ag,Menin-MLL FL inh
Cc1cc(C(=O)N2CCCC(N3CCN(c4cccc(Cl)c4)CC3)C2)n(C)n1 (stereo not given),-3.4%,1.8%,u,8.7,-1.2%,-7.0%,x
Cc1csc(NC(=O)C(Cc2ccccc2)n2cccc2)n1 (stereo not given),-16.6%,-14.9%,-13.0,-10.0,-1.2%,u,-0.9
Cc1cc(C)cc(N2CC(C)Cn3c2nc2c3c(=O)[nH]c(=O)n2C)c1 (stereo not given),-15.3%,16.2%,6.8,-0.9,-3.5%,9.2%,-5.0
Cc1cccc(N=N/C(=C\O)C(=O)c2ccc(Br)cc2)c1,-23.2%,-12.0%,5.1,30.7,x,-3.1%,2.6
CCn1cc(C2C3=C(CC(C)(C)CC3=O)N(c3ccccc3)C3=C2C(=O)CC(C)(C)C3)c(C)n1,-5.2%,7.0%,-17.4,-14.4,-11.3%,16.8%,-4.3
S=c1nc(C23CC4CC(CC(C4)C2)C3)nc2sccn12,x,1.6%,-15.4,x,x,x,-0.6
CCOC(=O)CSc1ccc2nnc(-c3cccnc3)n2n1,-1.3%,-14.8%,2.9,14.1,4.8%,10µM*,-0.5
O=C(Nc1ccccc1)Nc1nc(-c2ccc(F)c(F)c2)cs1,u,6.4%,-2.5,-1.2,-1.8%,13.5%[15.4 µM],5.1
COc1ccc2c(c1)C(NC(C)=O)C(=O)N2C (stereo not given),-1.4%,-5.6%,-2.9,3.8,-0.8%,-32.1%[inhibitor],0.2

# Screening results deposited in PubChem BioAssay by National Center for Advancing Translational Sciences (NCATS).

# This is a random part of the collection; 4.9% or so of the library scored in one or more.
